Assay outcomes (PubChem BioAssay)
Menin-MLL FL inh – menin-MLL binding inhibition, fluorescein peptide; Fluorescence polarization, fluorescein-MLL peptide displacement from menin; FP activity change, % at 61.4 µM; 290,000 tested, under 10 active; AID 1766; inconclusive = falling polarisation curve, or a change in total fluorescence; inactive = total fluorescence flat and polarisation flat or rising; no compound was filed as active; the % refers to the polarisation; negative = inhibition;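 also: % of control where 0% means no effect; inhibitors lower the polarisation; unlabelled MLL peptide was the positive control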
ClpP mod – qHTS Assay for Activators of ClpP; purified B. subtilis ClpP, FRET peptide cleavage, 20 min; hit rate 1.9% among 340,000; ATP-dependent Clp protease proteolytic subunit (Bacillus subtilis (strain 168)), P80244; Potency, µM (titrated, usually from 57.5 µM), for inactives: top-dose activity change, negative = active; active = well fitted falling curve with a large enough effect; inconclusive = small, poorly fitted or top-dose-only effect; inactive = no such curve, though single readings can be large or run the other way; also: potency is read from the fitted curve at half-maximal effect; the source files actives as falling curves though it sought activators and does not explain the sign; nearly all actives have a fitted effect of over 65% in size; many hits overshoot -100%
Target sequence (P80244 whole entry, looked up): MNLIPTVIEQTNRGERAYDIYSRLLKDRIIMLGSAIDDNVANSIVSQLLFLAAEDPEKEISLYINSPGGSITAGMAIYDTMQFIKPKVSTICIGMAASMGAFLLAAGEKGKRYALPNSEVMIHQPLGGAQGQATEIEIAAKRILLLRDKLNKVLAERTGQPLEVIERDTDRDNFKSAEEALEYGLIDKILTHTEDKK
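Buffer: 100 mM Tris/HCl pH8, 100 mM KCl, 0.05% low protease BSA, 2.5% glycerol, 0.01% Tween-20. ClpP 10 microg/mL final; 20 min RT; delta FRET normalized to ADEP and DMSO controls.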
gsp agonist – activates gsp, the McCune-Albright syndrome mutation. gsp mutant cells, cAMP HTRF, 30 min; control for the full effect not named in the record. Potency, µM (top dose mostly 76.9 µM), for the others: at the top dose activation (cAMP increase), usual class: activators. hit rate 0.13% among 340,000; active = well fitted activation curve with a large enough effect; inconclusive = small, poorly fitted or top-dose-only effect, or another doubt; inactive = no such curve, though single readings can be large or run the other way; cell line not stated here;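 also: phosphodiesterase inhibitor Ro 20-1724 added with compounds to block cAMP breakdown; potency is read from the fitted curve at half-maximal effect; nearly all actives have a fitted effect of over 60% in size; about a fifth of the inactives were tested at one dose only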
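Cells in DMEM/10% FBS with G418 were pretreated with compounds in DMSO plus […] (300 uM stock) for 30 min at 37C. cAMP was measured by HTRF (cAMP-d2 plus anti-cAMP antibody-K) after 30 min at room temperature.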
gsp antagonist – antagonizes gsp, the McCune-Albright syndrome mutation; gsp-mutant cells, cAMP HTRF, 30 min; control for the full effect not named in the record; Potency, µM (titrated, usually from 76.9 µM), without a hit: at the highest dose activity change, negative = inhibition, hits mostly inhibitors; hit rate 0.4% among 340,000; active = falling curve of any shape with a large fitted effect; inconclusive = falling curve, mostly with a smaller effect; inactive = flat or rising curve; cell line not stated here;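 also: intracellular cAMP measured with PDE inhibitor Ro 20-1724 present during compound exposure; potency is read from the fitted curve at half-maximal effect; % is scaled to controls: 0 for no effect and ±100 for the full control effect; nearly all actives have a fitted effect of over 65% in size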
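Cells in G418 medium, seeded 16-24 h, 37C; buffer exchange to DPBS + 1 mM CaCl2, 0.5 mM MgCl2, 0.05% BSA; cpds in DMSO + […] (300 uM stock), 30 min 37C; HTRF cAMP detection.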
TRPML1 ag – agonists of human TRPML1 channel | TRPML1-expressing cells, Ca2+ dye fluorescence, FDSS; host cell line not named in the record; reference of the full effect not given here | activation, % (test concentration not listed) | hit rate 0.12% among 410,000; in the data active = activation above about 50%; inconclusive = about 30% to 50%; inactive = below about 30%; also: 0% is about no effect; the text of the record puts the active cut at 80%
Target sequence (Q9GZU1 whole entry, looked up): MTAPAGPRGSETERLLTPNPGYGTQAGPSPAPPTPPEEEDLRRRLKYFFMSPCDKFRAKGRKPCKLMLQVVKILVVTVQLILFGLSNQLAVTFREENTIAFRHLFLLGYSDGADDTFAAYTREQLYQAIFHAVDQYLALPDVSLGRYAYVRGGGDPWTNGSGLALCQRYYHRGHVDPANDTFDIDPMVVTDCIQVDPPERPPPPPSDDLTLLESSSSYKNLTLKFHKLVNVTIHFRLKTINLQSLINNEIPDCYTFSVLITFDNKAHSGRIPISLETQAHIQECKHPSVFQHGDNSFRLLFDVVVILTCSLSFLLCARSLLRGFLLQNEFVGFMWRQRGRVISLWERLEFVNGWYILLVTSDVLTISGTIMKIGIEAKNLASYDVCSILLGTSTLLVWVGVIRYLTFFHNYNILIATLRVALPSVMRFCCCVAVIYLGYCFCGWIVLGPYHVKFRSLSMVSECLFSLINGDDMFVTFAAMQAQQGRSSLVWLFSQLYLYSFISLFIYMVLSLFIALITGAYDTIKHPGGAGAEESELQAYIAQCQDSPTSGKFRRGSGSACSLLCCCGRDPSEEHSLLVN
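Tet-induced TRPML1-DL cells, 1,500 per well, cultured overnight, were loaded with a no-wash Ca2+ dye for 45–90 min. Calcium fluorescence was recorded on the FDSS for 110 s after compound addition, before the EC80 agonist (4 uM 54-4) was added.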
TRPML1 inh – blocks the human TRPML1 channel. Q9GZU1. TRPML1-inducible cells, Ca2+ dye fluorescence, FDSS; stronger effect = lower value; inhibition of EC80 agonist-evoked calcium signal. activity change, negative = inhibition, % (test concentration not listed). AID 624415. hit rate 0.02% among 390,000; in the data active means activity change below about -50%; inconclusive means about -30% to -50%; inactive means above about -30%;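 also: stimulus is agonist 54-4 at its EC80 concentration; % is scaled to controls: 0 for no effect and ±100 for the full control effect; compound concentration not given in the record; the text of the record puts the active cut at -80%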
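TRPML1-DL cells, Tet-induced overnight (~16 h, 37 °C) at 1,500 cells/well, were loaded with Ca8 no-wash dye plus quencher for 45-90 min at room temperature. Compounds were pinned during FDSS kinetic reading; agonist 54-4 at EC80 (4 uM final) then added.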
Active calls of the source: *; ? = inconclusive; · = not tested or not shown; [ ] = remark or other dose.

Every second line gives: Menin-MLL FL inh	ClpP mod	gsp agonist	gsp antagonist	TRPML1 ag	TRPML1 inh
- Cc1ccc(C(C(=O)NC(C)(C)C)N(Cc2cccnc2)C(=O)C(=O)NC2CCCCC2)o1 (centres undefined)
    3.1	·	-21.0%[15.4 µM]	-1.4%	1.5	24.8
- COc1ccc(NC(C)C(=O)N/N=C/c2ccccc2OCc2cccc(Br)c2)cc1 (centres undefined)
    -1.2	·	0.8%	-11.3%	0.7	2.4
- O=C(Nc1ccccc1N1CCOCC1)c1ccc(N2CCCC2=O)cc1
    ·	-0.1%	6.1%	-7.8%	0.2	-7.0
- CCN(C(=O)COC(=O)C12CC3CC(CC(NC(C)=O)(C3)C1)C2)C1CCCCC1
    ·	-8.9%	?	16.3%	0.5	14.2
- Cc1cccc(C(=O)NC(=S)N2CCN(C)CC2)c1
    1.2	0.9%	?	6.1%	0.2	10.0
- COc1cc2c(cc1OC)CN(CC(=O)Nc1ccc(S(=O)(=O)N(C)C)cc1)CC2
    3.2	-2.5%	11.1%[15.4 µM]	-22.5%	0.8	-21.3
- COc1ccccc1N1CCN(C(=O)C(=O)c2cn(CC(=O)N3CCOCC3)c3ccccc23)CC1
    ·	-3.5%	3.9%	-11.4%	0.5	1.2
- COc1ccc(Cl)cc1NC(=O)CN(C)C(=O)c1cc(-c2cccs2)nn1-c1ccccc1
    ·	·	-11.7%[15.4 µM]	?	2.0	-1.6
- Cc1ccc(S(=O)(=O)C(C#N)c2nc3ccccc3nc2N2CCCC2)cc1 (centres undefined)
    ?	?	-0.3%	?	2.3	11.1
- CN(CCCN1CCCCC1)C(=O)CCc1nnc(C2CCCCC2)o1
    -5.8	·	6.9%[15.4 µM]	-5.0%	0.2	36.2
- O=C(NCc1ccncc1)Nc1ccccc1F
    -3.0	-0.6%	5.7%	1.8%	0.3	-11.7
- Cc1cc(C)n(Cc2ccc(C(=O)NCc3ccco3)o2)n1
    5.0	-2.3%	-27.0%	-1.1%	-0.8	-6.5
- O=C(NCCOc1ccccc1)C(c1ccccc1)c1ccccc1
    3.7	0.6%	1.1%	-1.0%	2.8	10.0
- Cc1c(C(=O)NCc2ccc(F)cc2)sc2nc(-c3ccc(F)cc3)cn12
    ·	-7.6%	·	·	4.8	66.6
- Cc1nonc1OC(C)CNc1ccc([N+](=O)[O-])cc1 (centres undefined)
    -1.9	2.3%	?	12.8%	-1.1	23.0
- CCOC(=O)[C@H]1[C@H]2COc3cc(OC)ccc3[C@@H]2N2C(=O)CN(Cc3ccc(C)cc3)C(=O)[C@@]12C
    ·	0.1%	-24.1%	-8.3%	-0.8	0.3
- COc1cc2nc(SCc3cccc(Cl)c3)n3nc(CCn4nc(C)cc4C)nc3c2cc1OC
    ·	-0.4%	·	·	-0.1	5.3
- COc1ccc(OC2CCN(C(=O)Nc3ccc(C)cc3)CC2)cc1
    -0.5	·	-5.0%	-3.6%	1.4	12.2
- Cc1ccccc1CN1CCN(C(=O)c2cccc3ccccc23)CC1
    0.9	0.7%	1.3%	-5.5%	0.2	10.9
- O=C(CSc1ncc(S(=O)(=O)c2ccccc2)c(=O)[nH]1)Nc1ccccc1Cl
    2.0	·	-2.8%[15.4 µM]	6.8%	0.8	-17.5

Every second line gives: Menin-MLL FL inh	ClpP mod	gsp agonist	gsp antagonist	TRPML1 ag	TRPML1 inh
- Cc1c(Cl)cccc1N1C(=O)CC(N(O)c2ccccc2)C1=O (centres undefined)
    2.2	-0.7%	-0.2%	-8.3%	0.2	3.9
- O=C(N/N=C/c1ccc(Br)cc1)c1cc[n+]([O-])cc1
    -0.7	·	29.4%[15.4 µM]	3.1%	-0.2	-6.4
- CCc1ccc(NC(=S)NC(=O)CC(C)C)cc1
    -10.2	·	-5.2%	3.0%	-0.5	-2.4
- COc1ccc(N2CCN(Cc3nc4ccccc4c(=O)[nH]3)CC2)cc1
    5.4	-5.7%	3.4%	0.2%	-0.3	-5.2
- COCOCCn1cc(CN2CCS(=O)(=O)N(Cc3ccc(-c4ccc(Cl)c(Cl)c4)cc3)C(C)C2=O)nn1 (centres undefined)
    ·	-0.2%	-15.3%	·	5.6	0.6
- CC(=O)Nc1nc(C)cs1
    -2.6	·	8.5%	12.1%	-0.5	9.7
- Cc1ccccc1-n1nc(C)c2cc(C(=O)N3CCOCC3)sc21
    2.5	-2.2%	22.2%	5.7%	0.7	-3.2
- COc1ccc(CN2CC(C(=O)NCC3CCCO3)CC2=O)cc1 (centres undefined)
    4.8	3.4%	-12.4%	3.4%	0.6	-2.0
- O=C(CCC(=O)N1CCN(c2cccc(Cl)c2)CC1)N1CCN(c2ccccc2)CC1
    2.9	0.7%	-12.1%	-14.0%	0.2	-14.8
- Cc1ccc(NC(=S)Nc2nc(CC(=O)Nc3ccccc3)cs2)cc1
    3.4	-0.9%	0.4%	-10.1%	0.5	2.8
- CC(C)c1cc(C(=O)O)c2cnn(C(C)C)c2n1
    0.4	3.6%	-40.8%[inhibitor]	4.5%	-0.1	?
- COc1cc(C)c(C2NC(=O)c3ccccc3N2)cc1C (centres undefined)
    ·	?	-13.5%	21.1%	1.5	7.7
- COc1ccc(C(=O)/C=C/C(=O)N(CC(=O)NCCC(C)C)Cc2cccs2)c(O)c1
    -1.3	-1.4%	18.6%	-5.4%	-0.2	?
- Cc1ccc(C)c(Cn2c(=O)n(Cc3ccco3)c(=O)c3oc4ccccc4c32)c1
    ·	-16.5%	·	·	0.7	-6.1
- CC(=O)c1ccc(NC(=O)C2CCN(S(=O)(=O)c3cccc4nonc34)CC2)cc1
    3.0	·	-12.5%	-28.5%	0.4	-8.3
- O=C(/C=C/c1ccccc1)N/C(=C/c1ccccc1)C(=O)N1CCOCC1
    9.3	-0.2%	11.4%	1.3%	-0.4	-13.7
- COCCNC(=O)CSc1nc(N)c(NC(=O)c2ccco2)c(=O)[nH]1
    ·	1.6%	-109.9%[inhibitor]	·	-0.2	5.0
- Cc1ccc(C(C(=O)NC2CCCC2)N(C(=O)Cc2cccs2)c2cccc(C)c2C)o1 (centres undefined)
    0.1	1.5%	29.6%	-20.4%	0.6	0.6
- Cc1ccc(C)c(N2CCN(C(=O)C3CCCN(S(=O)(=O)c4cnc[nH]4)C3)CC2)c1 (centres undefined)
    0.8	-3.2%	-59.1%[inhibitor]	-1.2%	-0.4	21.7
- CCN(Cc1nc2ccccc2c(=O)[nH]1)C(=O)c1cc2c(s1)CCCCC2
    ·	-0.5%	3.0%	-25.8%	1.3	17.6

Every second line gives: Menin-MLL FL inh	ClpP mod	gsp agonist	gsp antagonist	TRPML1 ag	TRPML1 inh
- O=C(Cc1cccc(NC(=O)C2CCCN(C(=O)C3CCCCC3)C2)c1)Nc1ccc(C(=O)N2CCOCC2)cc1 (centres undefined)
    ·	0.9%	·	3.7%	0.2	-4.4
- Cc1nnc(SCCC(=O)Nc2nc(-c3ccccc3)ns2)s1
    4.3	0.5%	-34.8%[inhibitor]	-22.3%	-0.3	20.6
- COc1ccc(NC(=S)N(CCC(C)C)C2CCN(C(C)=O)CC2)cc1
    -7.2	-4.3%	?	10.9%	-0.5	-21.7
- CC(=O)Nc1ccc(NC(=O)c2ccc([N+](=O)[O-])cc2Cl)cc1
    -0.2	-1.5%	5.9%	6.5%	1.1	14.8
- Cc1ccc(C)c(Oc2coc3cc(O)ccc3c2=O)c1
    0.1	3.9%	8.1%	-13.9%	5.4	-12.3
- Cc1c(Cl)cccc1NC(=O)COC(=O)CN1C(=O)NC(C)(C)C1=O
    -0.4	-1.4%	3.6%	28.2%	·	·
- NS(=O)(=O)c1cccc(NC(=O)CSc2n[nH]c(-c3cccs3)n2)c1
    ·	-6.2%	13.1%	11.5%	-1.1	-0.2
- Cc1cc(OC(F)F)ccc1NC(=S)NC1CCCC1
    5.9	1.4%	12.6%	-16.4%	-0.6	0.8
- C=CCN1CCN(C(=O)c2ccc(-c3ccccc3)cc2)CC1
    -4.9	1.1%	2.2%	2.9%	0.2	-9.1
- CCOc1ccc(N(C(C)C(=O)NC2CCCCCC2)S(C)(=O)=O)cc1 (centres undefined)
    -0.6	-2.2%	?	-8.9%	-0.3	-7.5
- CN(C)c1nn(C(=O)Nc2ccc(Cl)cc2Cl)cc1-c1ccccc1
    -0.8	-1.8%	-1.0%	14.6%	-0.6	1.6
- CCCc1cc(=O)[nH]c(SCc2ccc(F)cc2)n1
    -1.1	·	11.8%[15.4 µM]	4.6%	2.8	10.9
- O=S(=O)(CCSc1ccccn1)c1nc2ccccc2s1
    -3.5	-0.8%	2.9%	3.1%	0.8	-13.8
- CCCCCCC1C(C#N)=C(N)OC2=C1C(=O)CCC2 (centres undefined)
    -2.4	-2.0%	-25.8%	-2.1%	0.0	0.6
- O=C(NN1C(=O)/C(=C/c2cccs2)SC1=S)c1ccccc1
    0.8	2.9%	6.2%	-3.3%	0.9	15.8
- CCCNC(=O)c1cc(C)no1
    1.7	-3.3%	-9.6%	?	0.6	26.1
- O=S(=O)(Nc1ccc(Br)cc1)c1cccc2cccnc12
    7.3	·	-8.8%	-9.1%	1.6	-13.0
- O=S(=O)(O)c1cc(O)c(N=Nc2ccc(O)cc2O)c2ccccc12
    ·	·	-26.5%	-23.4%	0.0	0.5
- COc1ccc(NC2CCCCC2NS(=O)(=O)c2ccc(C)cc2)cc1 (centres undefined)
    ·	0.7%	0.4%	8.0%	-0.5	-10.4
- Cc1cccc(C(=O)NCC(=O)Nc2ccncc2)c1
    ·	0.5%	-25.1%	11.6%	-0.8	7.3

Every second line gives: Menin-MLL FL inh	ClpP mod	gsp agonist	gsp antagonist	TRPML1 ag	TRPML1 inh
- Cc1ccc(N=C2NC(=O)c3cccc([N+](=O)[O-])c32)cc1
    -1.3	?	?	2.9%	1.1	1.9
- COc1cccc(-c2nnc(SCC(N)=O)n2-c2ccc(Cl)cc2)c1
    -1.7	-0.9%	4.2%	-13.7%	0.1	-5.2
- O=C(N1CCCCC1)N1CCN(C(=O)N(c2ccccc2)c2ccccc2)CC1
    -1.1	0.4%	?	-0.2%	0.9	8.8
- O=C(C[C@H]1C[C@H](C(=O)N2CCOCC2)[C@@]2(CCC3CCCC3)c3[nH]c4ccc(Cl)cc4c3CCN2C1=O)NCc1ccco1
    ·	-0.2%	·	-24.8%	-1.1	-5.0
- COc1ccccc1NC(=O)NNC(=O)CCc1ccccc1
    -5.0	-0.7%	-24.3%	3.2%	-0.3	-2.4
- O=C(OCc1ccc([N+](=O)[O-])cc1)C1CC(=O)N(Cc2ccccc2Cl)C1 (centres undefined)
    ·	·	12.4%[15.4 µM]	-8.9%	0.4	-7.8
- CCn1c(=O)cc(SCC(=O)Nc2ccc(OC)c(OC)c2)c2ccccc21
    5.2	-1.1%	?	-3.3%	1.1	-2.0
